HNF4A DNA FP = change in binding of human HNF4 alpha to DNA; P41235; HNF4a-FITC DNA binding, fluorescence polarization, 1 h; activity change, % at 10 µM; hit rate 0.3% among 360,000; AID 1224865; in the data active = activity change above about 30%, passing the limit was not always enough;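 also: controls were the assay level and a saturating level of protein; the project sought stronger binding though the title names inhibitors; some compounds called inactive have numbers as strong as hits; positive values seem to mean higher polarization but the record does not say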
Target sequence (P41235 whole entry, looked up): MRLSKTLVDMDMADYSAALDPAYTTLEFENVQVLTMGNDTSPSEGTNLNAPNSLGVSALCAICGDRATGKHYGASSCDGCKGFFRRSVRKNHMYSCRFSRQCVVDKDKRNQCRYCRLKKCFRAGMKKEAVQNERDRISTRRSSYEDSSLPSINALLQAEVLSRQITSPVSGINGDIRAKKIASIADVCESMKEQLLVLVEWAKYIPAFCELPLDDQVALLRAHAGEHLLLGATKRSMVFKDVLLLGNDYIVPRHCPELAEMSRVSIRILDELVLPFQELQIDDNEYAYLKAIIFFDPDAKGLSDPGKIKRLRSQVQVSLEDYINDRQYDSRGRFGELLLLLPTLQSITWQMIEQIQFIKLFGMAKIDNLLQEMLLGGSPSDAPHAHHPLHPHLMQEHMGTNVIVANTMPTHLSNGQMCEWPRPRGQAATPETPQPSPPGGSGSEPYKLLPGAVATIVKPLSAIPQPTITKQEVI
The depositor's hits bear a star.

SMILES	HNF4A DNA FP
Cc1ccccc1C(c1ncccc1C)N(C)C(=O)C1CCN(CCOc2ccc(Cl)cc2Cl)CC1 (stereo unspecified)	5.2
CC(=O)Nc1ccc(CN2C(=O)C(CCc3ccccc3)ON=C2c2cnccn2)cc1 (stereo unspecified)	0.3
O=C(NCc1ccccc1)C(c1ccc(-c2ccccc2)cc1)n1c(=O)c(-c2cc3ccccc3[nH]2)nc2ccccc21 (stereo unspecified)	3.3
O=C(NC(c1ccc(Cl)cc1)c1cnccn1)C1CCN(Cc2ccc(Oc3ccccc3)cc2)CC1 (stereo unspecified)	1.5
Cc1ccc(F)cc1C(=O)N1CCOCC1c1cc(C(=O)NCc2ccccc2)no1 (stereo unspecified)	-1.1
CCCCCn1nnnc1-c1nc2cc3ccccc3cc2[nH]c1=O	-3.5
O=C(NCc1ccccc1)C1C(c2ccc3c(c2)OCO3)=Nc2ccccc2N1C(=O)c1ccccc1 (stereo unspecified)	2.1
CC(C)(C)c1ccc(C(O)c2ncc(-c3cccc(F)c3)[nH]2)cc1 (stereo unspecified)	2.7
C[C@@H](NC(=O)[C@@H]1CCCN1C(=O)[C@@H]1CCCN1C(=O)c1cccc2ccccc12)c1ccccc1	2.3
CC1(C(=O)NCc2ccccc2Br)CCN1C(=O)Cc1ccc(-c2ccccc2)cc1 (stereo unspecified)	-2.7
COc1cccc(C(NC(C)=O)c2nc(-c3ccc(F)cc3OC)cs2)c1 (stereo unspecified)	-2.0
O=C(C(=NNc1ccccc1)C(=S)Nc1ccccc1)c1ccccc1	5.4
Cc1ccc(Cc2c(-c3cccc(Br)c3)nc3c(Cl)cc(C(F)(F)F)cn23)cc1	-1.8
Cc1ccc(-c2cnc(C(O)c3ccc(Cl)c(Cl)c3)[nH]2)cc1 (stereo unspecified)	-3.8
COC(=O)c1cnc(Nc2nc(C(N)Cc3ccc(OC)cc3)cs2)nc1C(F)(F)F (stereo unspecified)	4.7
CC(C)C[C@H]1CN(CCCC[C@H]2CNC(=O)C(=O)N2CC2CCCCC2)C(=O)C(=O)N1CCc1ccc(O)cc1	-0.3
Cc1cccc(C)c1NC(=O)C1(C)CN(S(C)(=O)=O)CC(=O)N1Cc1ccco1 (stereo unspecified)	-4.0
CC(=O)Nc1ccc(-c2ccnc3c2CC(C)(C(=O)NCc2ccc(N(C)C)cc2)O3)cc1 (stereo unspecified)	-0.6
Cc1nc(C(F)(F)F)ccc1C(=O)N1CCC1(C)C(=O)NS(=O)(=O)c1ccc2ccccc2c1 (stereo unspecified)	0.6
CC(C)c1ccc(CC(=O)N2CCC2(C)C(=O)Nc2ccc3c(c2)OCCO3)cc1 (stereo unspecified)	5.7
CC(C)(C)NC(=O)C(c1cc2ccccc2o1)n1c(-c2ccc(-c3ccccc3)cc2)nc2ccccc21 (stereo unspecified)	8.6
O=C(O)c1ccc(CNC(=O)C2CCN(S(=O)(=O)c3ccc4c(c3)OCCO4)CC2)cc1	-0.3
COCCCN1C(=O)C(CC(=O)NCc2cccc3ccccc23)CC(C(=O)N(C(C)C)C(C)C)=C1C (stereo unspecified)	1.1
Cc1ccc(CN2C(=O)c3ccccc3C2c2nnnn2C(C)C)cc1 (stereo unspecified)	-2.6
Cc1nn(C)cc1CN(C)C(=O)C1CCC(=O)N(CCc2cccc(F)c2)C1 (stereo unspecified)	-3.9
O=C(NCC(F)(F)F)c1csc([C@@H]2O[C@H](CO)[C@H](O)[C@H](O)[C@H]2O)n1	1.1
CC(C)N(C)c1ncnc2c1ncn2[C@H]1CN(Cc2ccccc2)C[C@@H](CO)O1	-0.3
O=C(O)C1CCC2CCCC21 (stereo unspecified)	5.8
CCC(=O)N1CCC1(C)C(=O)Nc1ccc2c(c1)OCO2 (stereo unspecified)	1.1
CCOC(=O)CNC(=O)CSc1nc(C(C)C)nc2c1cnn2-c1ccccc1	0.3
CCCS(=O)(=O)NC(=O)C1(C)CCCN(C(=O)c2cc(OC)ccc2Br)C1 (stereo unspecified)	-2.4
COc1ccc(NC(=O)C2(C)CCN2C(=O)Cc2ccccc2)cc1OC (stereo unspecified)	0.8
CN(C)CCN(Cc1ccccc1)C(c1ccnc2ccccc12)c1nnnn1-c1ccc2c(c1)OCCO2 (stereo unspecified)	-3.0
FC(F)(F)c1cc(Cc2nc3ccccc3n2C(CCc2ccccc2)c2nc3ccccc3[nH]2)cc(C(F)(F)F)c1 (stereo unspecified)	14.0
O=C1CN(C(=O)COC(=O)c2cc(Cl)ccc2[N+](=O)[O-])c2ccccc2N1	3.4
COCCNC(=S)N(CCCO)Cc1cc2cc3c(cc2[nH]c1=O)OCO3	3.3
COc1ccccc1-c1cccc2nccn12	-1.7
O=C(Nc1ccccc1)Nc1nnc([C@@H]2C[C@H](O)[C@@H](CO)O2)s1	4.0
Cc1ccc(Cn2cc(CN3CC(N4CCN(CCN(C)C)CC4)CS3(=O)=O)nn2)cc1 (stereo unspecified)	4.4
CC(C)Oc1cc(F)ccc1-c1cc(C(=O)NCc2cccs2)[nH]n1	3.0
CC1(C(=O)NS(=O)(=O)c2cccc(C#N)c2)CCN1C(=O)C1(c2ccc(Cl)cc2)CCC1 (stereo unspecified)	-5.0
C[C@@H]1CCCN1[C@@H]1CS(=O)(=O)N[C@H]1COCc1ccccc1	-1.1
Cc1cn([C@H]2C[C@H](O)[C@@H](/C=C/C(=O)NCC(c3ccccc3)c3ccccc3)O2)c(=O)[nH]c1=O	1.8
COc1ccc(C(C)(NC(C)=O)c2nc(-c3cccnc3)cs2)cc1 (stereo unspecified)	2.6
CC1=C(C(=O)N(C)C)CC(CC(=O)NCCCCc2ccccc2)C(=O)N1Cc1ccccc1 (stereo unspecified)	1.8
CC(C)(C)c1ccc(C(=O)N2CCC2(C)C(=O)Nc2cnc3ccccc3c2)cc1 (stereo unspecified)	0.7
COCCN1C(=O)CSCC1(C)C(=O)NCc1ccccc1 (stereo unspecified)	0.4
COc1cccc(-c2cc3nc(Nc4ccc(OC)c(OC)c4)n(C)c(=O)c3s2)c1	3.0
Cc1nc2ccc(S(=O)(=O)CCC(=O)NCCc3ccccc3)cc2s1	0.5
O=C(NCc1ccco1)c1ccc2sc([C@@H]3O[C@H](CO)[C@H](O)[C@H](O)[C@H]3O)nc2c1	0.9
O=C(c1cc(C2CCCCN2S(=O)(=O)Cc2ccccc2)on1)N1CCOCC1 (stereo unspecified)	0.9
CCc1noc(C)c1C(=O)N1CCN(c2ccc([N+](=O)[O-])cc2)CC1	1.4
O=C(CC[C@H]1O[C@@H](n2cnc3c(NC(=O)c4ccccc4)ncnc32)[C@H](O)[C@@H]1O)N[C@@H](CO)Cc1c[nH]c2ccccc12	0.9
CCNC(=O)C1(C)CCCN1C(=O)c1ccc(C#N)cc1 (stereo unspecified)	-1.1
COCCCNc1ccn2nc(-c3cc(OC)c(OC)c(OC)c3)cc2n1	-1.5
CCNC(=O)C1(C)CCN1C(=O)CCc1cccc(Cl)c1 (stereo unspecified)	4.2
CN(Cc1cn(Cc2cccc(C(F)(F)F)c2)nn1)C1CN(Cc2cn(Cc3cccc(C(F)(F)F)c3)nn2)S(=O)(=O)C1 (stereo unspecified)	0.3
CCOC(=O)c1oc2ccccc2c1COC(=O)CNC(=O)c1ccccc1F	3.1
CCOC(=O)c1c(-c2ccc(N(C)C)cc2)oc2c1C(OC)CC2 (stereo unspecified)	1.2
CC(=O)Nc1ccc(CN2C(=O)C(C)(C)ON=C2c2ccc(C(F)(F)F)cc2)cc1	-3.8
Next entries.
SMILES	HNF4A DNA FP
CCc1nc2ccc(C(=O)Nc3cccc(OCC(=O)N(C)C)c3)cn2c1N(CCN(C)C)CC1CC1	0.7
CC(C)C[C@@H](CN1CCC[C@@H]1CN1C(=S)NC[C@@H]1Cc1ccccc1)N1C[C@H](Cc2ccc(O)cc2)N(CC2CCCCCC2)C1=S	-0.8
O=C(NCC1CCCO1)c1ccc2c(c1)N(Cc1ccc(Cl)cc1)CCS2 (stereo unspecified)	1.0
CC1CCCC(NC(=O)CSc2nnc(-c3cccnc3)o2)C1C (stereo unspecified)	2.8
O=C1CC2(CCCC2)C(=O)N1CN1CCN(S(=O)(=O)c2cc(F)ccc2F)CC1	3.1
O=C(NCC[C@H]1CC[C@H](NS(=O)(=O)c2ccccc2F)[C@@H](CO)O1)c1ccc(F)cc1	0.0
Cc1ccc(-c2ccc(CN3C(C)C(=O)N(Cc4cn(CCC5OCCO5)nn4)CCS3(=O)=O)cc2)cc1 (stereo unspecified)	1.9
Cc1cccc(-c2ccc(O)cc2CN2CCN(c3ncc(Cc4ccccc4)cn3)CC2)c1	7.0
O=C(NCc1ccco1)C1Cc2c(-c3ccccc3Oc3ccccc3)ccnc2O1 (stereo unspecified)	0.6
Cc1c(Br)cccc1NC(=O)C1(C)CCN1Cc1ccc(OC(C)C)cc1 (stereo unspecified)	-3.6
COC(=O)CCCn1cc(CN2CC(N3CCN(CCN(C)C)CC3)CS2(=O)=O)nn1 (stereo unspecified)	-3.3
COCCNC(=O)c1cccc2c(-c3ccnn3C)coc12	-0.6
CCCCCn1nnnc1C1c2ccccc2C(=O)N1Cc1ccco1 (stereo unspecified)	1.4
COc1ccc(Cn2cc(CN3CC(N(C)C)CS3(=O)=O)nn2)cc1 (stereo unspecified)	-3.3
CCCCNC(=O)c1ccc2nc(CC)c(N(CC)CCN(C)C)n2c1	-7.4
CN(C)CCN(C)C1CN(C2CCCC2)S(=O)(=O)C1 (stereo unspecified)	-2.6
CC(C)C[C@H]1CN([C@@H](CC(C)C)CN2CCC[C@H]2CN2C(=O)C(=O)NC[C@@H]2Cc2ccc(O)cc2)C(=O)C(=O)N1CC1CCCCCC1	-0.7
Cc1ccc(OCc2nc3ccccc3n2C(C)C(=O)Nc2c(C)cccc2C)cc1 (stereo unspecified)	1.6
CCCCCCCCC(c1nc2cc(C)c(C)cc2[nH]1)n1c(=O)c(-c2ccccc2Br)nc2ccccc21 (stereo unspecified)	1.3
CC(=O)N1CCC(c2nc3ccccc3n2C(C)C(=O)NCc2ccccc2)CC1 (stereo unspecified)	-2.3
CC1(Cc2ccc(OC(F)(F)F)cc2)C(=O)Nc2ccc(OC(F)(F)F)cc21 (stereo unspecified)	1.8
Cc1cccnc1C(c1ccc(F)cc1)N(C)C(=O)C1CCN(CCCOc2ccc(F)cc2)CC1 (stereo unspecified)	4.0
Cn1c(=O)c2cc(NC(=O)CCc3ccc4c(c3)OCO4)ccc2n1Cc1ccc(F)cc1	-4.2
COc1ccc(OC)c(NC(=O)C2(C)CCN2Cc2ccccc2Cl)c1 (stereo unspecified)	1.5
C#Cc1ccccc1OCCCN1CCC(C(O)(c2ccccc2)c2ccccc2)CC1	3.3
COc1ccc(Cc2c(-c3ccccc3)nc3ccc(Cl)cn23)c(C)c1	10.8
CCOC(=O)C1(C)CCCN(C(=O)c2cc(C#N)cs2)C1 (stereo unspecified)	-3.2
COc1cc(Nc2cccc(-c3ccccc3)n2)cc(OC)c1OC	4.3
O=C1CN(C(=O)CN2CCN(S(=O)(=O)c3ccccc3)CC2)c2ccccc2N1	-0.2
CCc1nc2ccc(C(=O)N(CC)CCN(C)C)cn2c1N(CC)CCOC	-0.3
CCCc1nc2cc(C)c(Br)c(C)n2c1Cc1ccsc1	-0.8
O=C(Nc1ccn(C2CCC(CO)O2)c(=O)n1)c1ccccc1 (stereo unspecified)	0.4
CC1(C)CC(=O)C=C(c2ccc(-c3cccc(C(N)=O)c3)cc2)C1=O	-2.0
COC(=O)[C@@]12C[C@@H](CC(=O)NCC3CCCCC3)C(=O)N(Cc3ccco3)C1=CCC(C)(C)C2	3.9
O=C(NCc1ccccc1)c1cc(C2COCCN2C(=O)c2ccc(Cl)cc2)on1 (stereo unspecified)	3.8
CC(=O)Nc1cncc(-c2ccccc2C(C)=O)n1	1.4
CCCCC[C@H](C)N1C[C@H](COCc2ccccc2)Oc2cc(N3CC[C@H](N(C)C)C3)ccc2S1(=O)=O	-2.5
COc1ccc(CCN2C(=O)CCC2(C)c2nnnn2-c2c(C)cccc2C)cc1OC (stereo unspecified)	2.7
CCCCNC(=O)c1nc(C2CCN(S(=O)(=O)c3ccccc3C(F)(F)F)CC2)oc1-c1cccc(C(F)(F)F)c1	-2.0
COc1cccc(Cn2c3ccc(NC(=O)Cc4ccccc4C)cc3c(=O)n2C)c1	2.2
CCC1Oc2ccccc2N(CC(=O)N2CC(C)CC(C)C2)C1=O (stereo unspecified)	-0.5
Nc1ccc(CC(N)c2csc(Nc3nncc4ccccc34)n2)cc1 (stereo unspecified)	1.7

A stretch from further up:
SMILES	HNF4A DNA FP
COc1cc(Nc2cccc(-c3ccccc3)n2)cc(OC)c1OC	4.3
O=C1CN(C(=O)CN2CCN(S(=O)(=O)c3ccccc3)CC2)c2ccccc2N1	-0.2
CCc1nc2ccc(C(=O)N(CC)CCN(C)C)cn2c1N(CC)CCOC	-0.3
CCCc1nc2cc(C)c(Br)c(C)n2c1Cc1ccsc1	-0.8
O=C(Nc1ccn(C2CCC(CO)O2)c(=O)n1)c1ccccc1 (stereo unspecified)	0.4
CC1(C)CC(=O)C=C(c2ccc(-c3cccc(C(N)=O)c3)cc2)C1=O	-2.0
COC(=O)[C@@]12C[C@@H](CC(=O)NCC3CCCCC3)C(=O)N(Cc3ccco3)C1=CCC(C)(C)C2	3.9
O=C(NCc1ccccc1)c1cc(C2COCCN2C(=O)c2ccc(Cl)cc2)on1 (stereo unspecified)	3.8
CC(=O)Nc1cncc(-c2ccccc2C(C)=O)n1	1.4
CCCCC[C@H](C)N1C[C@H](COCc2ccccc2)Oc2cc(N3CC[C@H](N(C)C)C3)ccc2S1(=O)=O	-2.5
COc1ccc(CCN2C(=O)CCC2(C)c2nnnn2-c2c(C)cccc2C)cc1OC (stereo unspecified)	2.7
CCCCNC(=O)c1nc(C2CCN(S(=O)(=O)c3ccccc3C(F)(F)F)CC2)oc1-c1cccc(C(F)(F)F)c1	-2.0

Not all compounds are listed (hit frequency here may not be typical).
